High-throughput results deposited in PubChem by ICCB-Longwood Screening Facility, Harvard Medical School.
CapD inh: inhibitors of Bacillus anthracis CapD enzyme; z-score (no concentration beside the values); 0.23% of 140,000 active; purified CapD enzyme, fluorescence intensity read-out; stronger effect = lower value; some hits fall short of the stated cut;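 active = z-score under -4 in either of two replicates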;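 also: stock transfer was 100 nL into about 40 µL; score is relative to mean and spread of the plate; one replicate is shown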
AID504770: growth inhibitors of E. coli YBA685 in a screen for V. cholerae RctB (chromosome II replication) inhibitors; E. coli YBA685 rctB-dependent plasmid, OD600 growth, 3 h; stronger effect = lower value; z-score (no concentration beside the values); 0.27% of 130,000 active; AID 504770;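 active = z-score under -2 on both plates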;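 also: wells of about 30 µL received 100 nL stock; score is relative to mean and SD of the test wells; the first replicate is given; strong numbers were not always called active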
An asterisk follows results filed as active; nt = no result given. Not a hit list; overall some 0.37% were active at least once.

Order of results: AID504770, CapD inh
O=C(COC(=O)C1CCCCC1)Nc1cc(Cl)cc(Cl)c1
→ -0.25, -0.2
COC(=O)C1=C(N)OC2=C(C(=O)CC(C)(C)C2)C1c1ccc(Br)cc1 (stereo not given)
→ nt, -0.095
OCCOc1ccccc1O
→ -0.85, nt
CCCNC(=O)N1CC(CC)Oc2ccccc21 (stereo not given)
→ 0.35, -0.61
c1ccc(C(CN2CCOCC2)c2ccccc2)cc1
→ -1, 0.1
CCN(CC)C(=O)Cn1cc(SCc2ccccc2)c2ccccc21
→ -0.85, 2.4
Cc1cc(C)cc(NC(=O)N(CCC#N)Cc2ccccc2)c1
→ -0.55, 0.065
O=C(NCc1cc(F)cc2c1OCOC2)c1sc2ccccc2c1Cl
→ 0.4, 0.68
O=C(NCC1CCCO1)c1cc(S(=O)(=O)N2CCOCC2)ccc1Sc1ccc(Br)cc1 (stereo not given)
→ nt, -1.2
CCCN(CCC)S(=O)(=O)c1ccc(C(=O)Nc2ccc3c4c(cccc24)C(=O)N3CC)cc1
→ nt, -0.75
CC(C)C1CCC(C)C(C(O)c2ccc(-c3ccccc3)cc2)C1=O (stereo not given)
→ 0.85, 0.07
CC(=Nc1ccc(C(=O)O)cc1)c1cc2c(=O)n(C)c3ccccc3c2oc1=O
→ 1.1, 10
Cc1ccc(NC(=S)N(Cc2ccco2)Cc2cc3cc(C)c(Cl)cc3[nH]c2=O)cc1
→ 0.1, nt
Cc1nn(CN2CCCC2c2cccs2)c(C)c1S(=O)(=O)N1CCCCC1 (stereo not given)
→ -2.3, nt
CS(=O)(=O)N(Cc1ccccc1)c1ccc(C(=O)NC2CCCCC2O)cc1 (stereo not given)
→ -0.6, nt
N/C(CSc1cccs1)=N\OC(=O)Nc1ccccc1
→ 0.75, 0.79
Cc1ccc2c(c1)c(=O)c1ccccc1n2CC(=O)Nc1c(F)cc(F)cc1Br
→ nt, 4.6
CCOC(=O)c1c(NC(=O)CCN2CCOCC2)sc2c1CCC(C)C2 (stereo not given)
→ -0.1, 3.3
O=C(NCc1ccccc1)c1nccnc1CO
→ -0.15, -0.6
O=S(=O)(Nc1ccc2[nH]ncc2c1)c1ccc(Br)cc1OC(F)(F)F
→ nt, 0.3
Nc1nonc1C(=O)NCCNCc1ccncc1
→ -0.45, -0.55
O=C1S/C(=C\C=C\c2ccco2)C(=O)N1c1ccccc1
→ 0.45, nt
O=C1[C@H](CCC(O)c2ccc(F)cc2)[C@@H](c2ccc(O)cc2)N1c1ccc(F)cc1 (stereo not given in full)
→ -0.35, nt
N#CC1(C#N)[C@@H]2c3ccccc3C=CN2[C@@H](C(=O)c2ccc(F)cc2)[C@@H]1c1cccc(F)c1
→ nt, 1.6
O=C(CC(C(=O)N1CCc2ccccc21)n1ccnc1)NCc1ccccc1 (stereo not given)
→ 0.65, 0.21
Cc1nc2sc(C(c3ccccc3Cl)N(C)Cc3ccccc3)c(O)n2n1 (stereo not given)
→ 1.2, nt
NS(=O)(=O)c1ccc(C(=O)NNC(=O)C2CCN(c3ccc(C(F)(F)F)cn3)CC2)cc1
→ nt, 3.7
Cc1ccccc1N/C(SCc1ccccc1F)=C(/C#N)C(=O)NCc1cccs1
→ nt, 0.06
O=S(=O)(c1ccccc1Oc1ccc(Cl)cc1Cl)N1CCCCC1
→ nt, 0.52
Cc1cc(NS(=O)(=O)c2ccc(NC(=O)c3cccs3)cc2)no1
→ nt, -0.42

Some of the entries so far, as tab-separated lines:
canonical_smiles	AID504770	CapD inh
N#CC1(C#N)[C@@H]2c3ccccc3C=CN2[C@@H](C(=O)c2ccc(F)cc2)[C@@H]1c1cccc(F)c1	nt	1.6
O=S(=O)(c1ccccc1Oc1ccc(Cl)cc1Cl)N1CCCCC1	nt	0.52
O=C(CC(C(=O)N1CCc2ccccc21)n1ccnc1)NCc1ccccc1 (stereo not given)	0.65	0.21
O=C1[C@H](CCC(O)c2ccc(F)cc2)[C@@H](c2ccc(O)cc2)N1c1ccc(F)cc1 (stereo not given in full)	-0.35	nt

The listing continues.
Order of results: AID504770, CapD inh
Cc1cc(C)c2c(=O)[nH]c(SCc3ccccc3C)nc2n1
→ 2.6, 5.6
CC(Sc1nc2ccccc2s1)C(=O)N1CCOCC1 (stereo not given)
→ 0.2, nt
COc1ccc2c(c1)-c1c(ssc1=S)C(C)(C)N2C(=O)c1ccccc1F
→ nt, 0.66
CCOc1ccccc1-n1c(N)c(C(=O)Nc2ccccc2)sc1=S
→ nt, -0.97
CC1=Nc2ccccc2/C1=C/c1c(O)n(-c2ccc(Br)cc2)c(=O)[nH]c1=O
→ nt, -0.73
c1ccc2c(c1)CCN2c1nc2ccccc2n2cnnc12
→ -0.35, -3.6
Cc1cccc(OCCn2c(=O)sc3ccccc32)c1
→ -0.7, -0.19
Cc1ccc(Sc2oc(/C=N/n3cnnc3)cc2Br)cc1
→ 0.1, 1.3
CN1CCC(OC(=O)c2ccc3c(c2)OCCO3)CC1
→ -0.5, 0.015
CC(=O)Oc1ccc2c(=O)c(-c3nc4ccccc4n3C)coc2c1
→ -0.3, 0.29
CCC(=O)Nc1ccc2nc(SCc3nc4ccccc4[nH]3)sc2c1
→ -1.9, 1.1
Cc1cc(Cl)ccc1OCC(=O)N/N=C/c1ccccn1
→ nt, -0.21
CCOC(=O)N1CC=C2C(C#N)=C(N)C(C#N)(C#N)C(c3ccccc3C(F)(F)F)C2C1 (stereo not given)
→ nt, 0.86
Cc1cc2c(cc1S(=O)(=O)N1CCc3ccccc31)n(C)c(=O)c(=O)n2C
→ -0.85, -0.79
O=C(c1cc2c(s1)CCCCCC2)N1CCC2(CC1)OCCO2
→ -0.1, 0.11
Cc1ccc(C)n1-c1ccc(C(=O)NNS(=O)(=O)c2ccc(Cl)cc2)cc1
→ nt, 0.62
O=C(NCc1ccc(-c2cccs2)s1)c1c(Cl)cccc1Cl
→ 2, 3.5
CC1C=CCC2C(=O)N(c3cccc(C(=O)N4CCN(c5ccccc5)CC4)c3)C(=O)C12 (stereo not given)
→ nt, -0.59
O=C(OCC(=O)N1CCCC1)c1ccc(OC(F)(F)F)cc1
→ -0.5, -0.37
O=c1[nH]nc(CSCc2csc(-c3ccccc3)n2)[nH]1
→ 0.6, nt
CCc1ccc(CC(=S)N2CCOCC2)cc1
→ 0.25, -0.24
O=C(Nc1ccc(Cc2ccncc2)cc1)C1CCC(N2C(=O)C3CC=CCC3C2=O)CC1 (stereo not given)
→ nt, 0.17
COc1cc(NC(=O)c2ccc3c(c2)C(=O)N(c2cccc(C)c2C)C3=O)c(C(=O)O)cc1OC
→ 0.15, 0.12
Cc1ccc(N2C(=O)C(c3ccccc3)C(N3CCOCC3)C2=O)cc1 (stereo not given)
→ -0.7, -0.42
O=C(NCCCN1CCN(c2ccccc2)CC1)NCc1ccccc1
→ -1.1, -0.31
O=C(NCCN1CCN(c2ccccc2)CC1)c1ccc2c(=O)n(CCc3ccccc3)c(=O)[nH]c2c1
→ -0.5, 0.46
C=CCNC(=O)Nc1ccc(Cl)cc1
→ -1.3, -0.24
CCN(CC)S(=O)(=O)c1ccc(NC(=O)COc2c(OC)cccc2OC)cc1
→ 0.35, nt
CCN(CC)C(=O)CSc1nc2ccccc2n1S(=O)(=O)c1ccc(Br)cc1
→ nt, -0.81
COc1ccc(/C=C2/N=C(c3ccccc3)OC2=O)cc1
→ -0.25, 0.095
O=C(NCc1ccccc1)N1CC2C=CC1C2 (stereo not given)
→ -0.25, -1.3
COc1ccc(-c2cc(C(=O)NCc3ccc4c(c3)OCO4)c3ccccc3n2)cc1OC
→ nt, 24
O=c1[nH]cc(N2CCOCC2)c(=O)[nH]1
→ -0.35, nt
Cc1ccc(Nc2nnc(C)c(=O)[nH]2)cc1
→ -0.7, -0.22
CC(C)Oc1ccc(OCCSc2nc3ccccc3n2CC(=O)O)cc1
→ nt, -0.005
CC(C)CCn1cnc2c1c(=O)n(CC(=O)N1c3ccccc3NC(=O)C1(C)C)c(=O)n2Cc1ccccc1
→ -0.4, nt
O=C(O)CNC(=O)c1cccnc1Sc1ccc(Cl)cc1
→ -0.15, -0.045
O=C(O)CSCC(=O)N1CCN(c2cc(C(F)(F)F)ccn2)CC1
→ nt, 74
O=C(c1ccc(CS(=O)(=O)c2ccccc2)cc1)N1CCCC1
→ 0.05, 0.53
NC(=O)CSc1nc(N)c(NC(=O)c2cccs2)c(=O)[nH]1
→ 0, nt
Cc1ccc(C2=N/C(=C\c3c(C)nn(-c4ccccc4)c3Cl)C(=O)O2)cc1[N+](=O)[O-]
→ nt, -0.54
O=C(OCc1ccc([N+](=O)[O-])cc1)C1CCCN1C(=O)OCc1ccc(C(F)(F)F)c(F)c1 (stereo not given)
→ nt, -1
CC1=C(C(=O)Nc2ccccc2)C(c2ccncc2)C(C#N)=C(SCC(=O)Nc2cccc(C(F)(F)F)c2)N1 (stereo not given)
→ nt, -0.27
O=C1CCC(=O)N1CC(=O)N1c2ccccc2Sc2ccccc21
→ nt, 0.84
O=C(CN(Cc1ccco1)C(=O)c1ccccc1)Nc1ccc(Cl)c(Cl)c1
→ -0.5, 4.6
CCC1C(C#N)=C(SC(C(N)=O)c2ccccc2)NC2=C1C(=O)CC(C)(C)C2 (stereo not given)
→ -1.6, nt
O=C(COC(=O)c1ccc(Cl)nc1)NCc1ccccc1
→ -0.2, 0.16
CCc1nnc(NC(=O)C2CCN(S(=O)(=O)Cc3ccccc3)CC2)s1
→ 0.05, nt
c1ccc(-c2nnc(N3CCCC3)c3ccccc23)cc1
→ nt, -0.94
CCn1c(SCC2COc3ccccc3O2)nnc1-c1cccs1 (stereo not given)
→ 0.25, nt

Next part:
Order of results: AID504770, CapD inh
Cc1cccc(S(=O)(=O)NCc2cn3ccsc3n2)c1
→ -0.5, nt
CC1(C)Nc2ccccc2-c2c1sn(C1CCCCC1)c2=S
→ nt, 1.3
CN(C(=O)COC(=O)c1ccc2ccccc2c1)c1ccccc1
→ -1.2, 80
COc1ccc(CCNc2nc(SCc3cc(=O)n4cc(Cl)ccc4n3)nc3ccccc23)cc1OC
→ nt, -0.035
Cc1cc(C)n(-c2ccccc2)n1
→ -0.45, -0.17
NC(=O)CSc1nnc(-c2ccccc2)c(-c2ccccc2)n1
→ nt, -0.84
NC(=O)Cn1cc(F)c(=O)[nH]c1=O
→ 0.1, nt
O=C(Nc1cc(Cl)cc(Cl)c1)c1csc(Cc2ccccc2)n1
→ nt, 0.32
O=C(Nc1ccc2c(c1)OCCO2)c1ccccc1
→ -0.45, -1.2
O=c1[nH]c(=S)nc2cc[nH]n12
→ 0.25, 0.7
FC(F)(F)c1nc2ccccc2nc1N/N=C/c1ccc(Cl)cc1Cl
→ nt, -0.29
O=C(O)CCNS(=O)(=O)c1cccc(C(F)(F)F)c1
→ 0.9, 0.26
O=C1NC(=O)N(c2ccccc2F)C(=O)/C1=C/c1cn(CC(=O)N2CCOCC2)c2ccccc12
→ nt, -0.38
CCOc1ccc(NC(=O)CN(C)c2ccc(S(=O)(=O)N(C(C)C)C(C)C)cn2)cc1OCC
→ -0.55, nt
CCN1CCN(C(=O)C(C)n2c(C)c3cnn(-c4ccccc4)c(=O)c3c2C)CC1 (stereo not given)
→ 1.1, 0.11
CCOc1ccc(NC(=S)NCCCn2ccnc2)cc1
→ 1.3, 0.07
COc1ccc(CS/C(N)=N/N)cc1
→ nt, 0.8
CC1CN(C(=O)CCC(=O)NC2CCN(Cc3ccccc3)CC2)c2cc(Cl)ccc2O1 (stereo not given)
→ 1.2, -1.8
COc1ccc(C(=O)OCCN(C2=NS(=O)(=O)c3ccccc32)c2ccccc2)cc1OC
→ nt, -0.12
CCOc1ccc(-n2nc(C(=O)N3CCC4(CC3)OCCO4)c3ccccc3c2=O)cc1
→ -0.45, 0.93
CN1/C(=C/C(=O)C2CCC2)Sc2ccccc21
→ -0.5, nt
CC(NC(=O)C1CCN(C(=O)N(C)C)CC1)c1ccccc1 (stereo not given)
→ 1.1, -0.02
O=C1NC(=S)S/C1=C\c1cn(CC(=O)N2CCOCC2)c2ccccc12
→ -1.6, -1.9
O=C(NCCCN1CCN(Cc2ccccc2)CC1)c1cnn(-c2ccccc2)c1-n1cccc1
→ 0.2, -0.05
CC(C)(Oc1ccccc1OC(=O)c1ccccc1)C(=O)CBr
→ 0, 0.63
CCCCC(=O)Nc1nnc(-c2ccc(C)c(C)c2)o1
→ 0, nt
COC(=O)C1=C(C)NC(C)=C(C(=O)OC)C1C1CC=CCC1 (stereo not given)
→ 0.85, nt
Cc1ccc(C(=O)N2Cc3ccccc3CC2C(=O)O)cc1 (stereo not given)
→ -1.8, nt
CC(C(=O)O)(c1ccccc1)c1ccccc1
→ -1.1, -0.065
CN(NC(=O)Nc1cccc(C(F)(F)F)c1)c1c(Cl)c(Cl)nn1C
→ nt, 0.05
COc1ccc(SCCc2nnc(-c3ccccc3)o2)cc1
→ -0.65, 0.71
N#Cc1ccc(-c2ccc(OCc3ncc(-c4ccccc4)o3)cc2)cc1
→ 0.1, nt
O=C(CCn1c(=O)c2ccccc2n(CC(=O)NCc2ccco2)c1=O)NCCc1ccc(Cl)cc1
→ 1, -0.26
O=C(NC(=O)c1ccccc1)NC1CCCC1
→ -0.55, 0.36
COc1cccc(C(=O)N2CCN(C(=O)c3ccc(F)cc3)c3ccccc3C2)c1
→ -0.75, -0.51
N#Cc1cc(Cl)ccc1Nc1ncnc(N)n1
→ -2.4*, 90
COc1ccc(N2CCN(C(=O)C3CCN(S(=O)(=O)c4ccc5c(c4)oc(=O)n5C)CC3)CC2)cc1
→ 0.85, 0.44
